Screens: PubChem, Fisher Drug Discovery Resource Center
NPYLR7 ag: agonists of mosquito NPYLR7 receptor, primary screen, cell-based, Aedes aegypti, calcium fluorescence, mosquito biting behavior. HEK293T NPYLR7/Galpha15, GCaMP6s calcium fluorescence. activation, % at 10 µM. 270,000 compounds, 0.15% hits. AID 1259423, 2018; in the data active = activation above about 40%;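 note: 0% = vehicle and 100% = reference agonist at the receptor; some compounds past the cut are filed as inactive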
NPYLR7 ag max-min: recorded beside NPYLR7 ag, whose call it bears; activation, %; measured here: Max-Min RFU normalised activation; some inactives read as strong as hits;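 span of the calcium signal over five minutes; 0% = vehicle and 100% = native peptide agonist; compound fluorescence can raise it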
The depositor's hits bear a star; & = joins results of further samples. Not all compounds are listed, so the mix of outcomes need not match the whole.

smiles | NPYLR7 ag | NPYLR7 ag max-min
COc1ccccc1CN(CCn1c(C)csc1=O)CC1CCCO1 (stereo not drawn) | 4 | 1
O=C(c1sccc1-c1ccccc1)N1CCN(S(=O)(=O)c2ccccc2Cl)CC1 | -4 | -11
COc1ccccc1NC(=O)CN(c1ccc(C)cc1)S(=O)(=O)c1ccc(OC)c(OC)c1 | 5 | 8
CCc1ccc2nc(N(CCCN(C)C)C(=O)CCS(=O)(=O)c3ccccc3)sc2c1 | 4 | 3
CCn1nnc2c(=O)n(Cc3ccccc3F)cnc21 | 1 | 16
Cc1ccsc1C(=O)NCc1cccnc1N(C)CCc1ccccn1 | 18 | 7
COc1ccc(Cn2cc(-c3cc(N)nc4[nH]ccc34)cn2)cc1 | -1 | 3
Cc1cccc(-n2c(CNC(=O)c3ccc(-c4ccccc4)cc3)nnc2SCC(=O)N2CCc3ccccc32)c1 | -12 | -6
Cn1cnnc1SCc1csc(Cc2ccc(F)cc2Cl)n1 | 15 | 17
CC(=O)c1cccc(CN(C)CC2CCN(Cc3ccc(C)o3)CC2)c1 | 13 | 7

Later entries:
smiles | NPYLR7 ag | NPYLR7 ag max-min
COc1ccc(O)c(C=Nc2ccc3c(c2)OCO3)c1 | -6 | -9
N#Cc1ccc(CS(=O)(=O)NCC2(c3ccccc3)CC2)cc1 | 2 | 3
CCOC(=O)[C@@H]1[C@@H](OC)C(=O)N(C)C12CCN(C(=O)Cc1ccccc1)CC2 | 25 | 21
Oc1oc(-c2ccc(Cl)cc2)nc1C=Nc1cccc(C(F)(F)F)c1 | 15 | 2
CN(CCc1nccs1)C(=O)Nc1cccc(F)c1 | 10 | 4
CCOc1ccc(NC(=O)N2CCSC2c2cccc(Oc3ccccc3)c2)cc1 (stereo not drawn) | 1 | 9
O=C(NCc1ccc(F)c(F)c1)c1cn(CCc2ccccc2)nn1 | 17 | 4
CCN(CC)CCCNCc1cnc(SC)nc1N1CCc2ccccc2C1 | 7 | 8
Cc1nc(CCNC(=O)c2cn3c(n2)CNCC3)sc1C | -4 | -9
Cc1nn(C)c(C)c1CC(=O)NC(C)CCc1ccc(Br)cc1 (stereo not drawn) | 5 | 3

The listing continues:
smiles | NPYLR7 ag | NPYLR7 ag max-min
Brc1cc2c(cc1CSc1nnnn1C1CC1)OCCO2 | 7 | 12
Cc1cccnc1N1CCN(C(=O)[C@H]2Cc3ccccc3CN2)CC1 | 7 | 7
Cc1ccc(C)c(OCCCn2c(=O)cc(C)c3cnn(C(C)C)c32)c1 | 1 | 1
CCc1nc2c(OCc3cccc(Cl)c3)cccn2c1N(C)C(=O)C1CC1 | -6 | -9
COc1ccc(C2SCC(=O)N2CCC(=O)NC(C)C)cc1OC (stereo not drawn) | -1 | 10
Cc1cc(C)cc(N2CCN(Cc3ccccc3OCCO)CC2=O)c1 | 4 | 1
CN(Cc1ccccc1)C1CCCN(C(=O)Cn2nc3ccccc3n2)C1 (stereo not drawn) | 17 | 4
O=C(Cn1nnnc1CN1CCCCCC1)NCCC1COc2ccccc2O1 (stereo not drawn) | 10&11 | 3&5
CCOc1ccc2ncc(C#N)c(NCc3ccccc3)c2c1 | -2 | -3
O=C1Oc2ccccc2C2c3sc(=O)[nH]c3SCC12 (stereo not drawn) | 6 | 2

(list continues)
smiles | NPYLR7 ag | NPYLR7 ag max-min
COCC(=O)N1CCC(Nc2ccc(F)cc2C#N)CC1 | 4 | -5
COc1ccc(-c2cc(C(=O)Nc3ccc(C)cc3)n(-c3cc(C)ccc3C)n2)c(OC)c1 | 13 | 17
CCOC(=O)c1ccc(CSc2nc3cc(S(=O)(=O)N(CC)CC)ccc3n2C(C)C)cc1 | 15 | 8
CCOC(=O)N1CCN(C(=O)CSc2ncc(CO)n2Cc2ccc(F)cc2)CC1 | 0 | -2
COc1ccc(C2CC(c3c(-c4ccccc4)c4cc([N+](=O)[O-])ccc4[nH]c3=O)=NN2)cc1OC (stereo not drawn) | 0 | -6
CN(CC(=O)N1CCNC1=O)Cc1ccc(Cl)cc1Cl | 9 | 8
Clc1cnc(NN=Cc2cccs2)c(Cl)c1 | -4 | -7
CNc1nc2cnc(Nc3ccc(NC(C)=O)cc3)cc2n1-c1cccc(C(F)(F)F)c1 | 6 | -8
Cc1ccc(S(=O)(=O)NCc2ccc(N3CCCC3)nc2)cc1C | 2 | 1
O=C(c1ccc(Cl)c(Cl)c1)N1CCC(c2nc(-c3ccc(F)c(F)c3)no2)CC1 | 2 | 1

Next part
smiles | NPYLR7 ag | NPYLR7 ag max-min
Cc1cc(C)n(C)c(=O)c1C(=O)NCc1cn2c(n1)SCC2 | 12 | 9
Cc1cc(C(C)Nc2cncc(Cl)n2)c(C)o1 (stereo not drawn) | -24 | -24
CCN(CC)C(=O)/C(C#N)=C/c1cc(O)c(O)c([N+](=O)[O-])c1 | -11 | -24
CC(C)N(Cc1nnc(-c2ccccc2)o1)C(=O)c1ccc(C#N)cc1 | 4 | 17
CSc1cccc(C(=O)N(CCN(C)C)c2nc3ccc([N+](=O)[O-])cc3s2)c1 | -1 | -3
CC(=O)Nc1cc(C(=O)NCc2ccc(C)c(F)c2)cc2ncn(CCc3ccccn3)c12 | 18 | 5
CC1C=CCC2C(=O)N(c3cccc(O)c3)C(=O)C12 (stereo not drawn) | 12 | 11
N#CC1C(=N)Oc2n[nH]c(-c3ccc(Cl)cc3)c2C1c1ccc2c(c1)OCO2 (stereo not drawn) | 5 | 6
CCC1CN(C(=O)c2cnn(-c3cccc(C(F)(F)F)c3)c2C)CCO1 (stereo not drawn) | 10 | 3
CN(C)CCN(Cc1ccccc1)C(=O)CN1C(=O)C(Oc2ccccc2)C1c1ccccc1 (stereo not drawn) | 2 | 4

(listing goes on)
smiles | NPYLR7 ag | NPYLR7 ag max-min
COCCN(CC(=O)N(CCc1c[nH]c2ccccc12)Cc1ccc(F)cc1)C(=O)Nc1ccccc1OC | 2 | 11
NCC12CC3CC(CC(C3)C1)C2 | 14 | 7
c1ccc2oc(NC3=NCN(C4CCCCC4)CN3)nc2c1 | 15 | 13
COc1ccccc1NC(=O)Cn1c(-c2ccoc2)nc(C)c1C | 9 | 4
CCN(C(=O)C(C)Sc1n[nH]c(C(C)C)n1)c1ccccc1 (stereo not drawn) | 4 | 10
CCN(CC)CCNC(=O)c1cccc(N)c1Nc1ccccc1 | 0 | -2
COc1cccc(C(=O)Nc2cc(-c3nc4ccccc4o3)ccc2Cl)c1 | 4 | -6
Cc1cc(C)cc(CSCC(=O)N2CCC3(CC2)C(=O)NCCN3C)c1 | 2 | 0
CC(=O)N1CCC(C(=O)NC(C)c2ccccc2C)CC1 (stereo not drawn) | -5 | -3
COc1ccc(/C=N\NC(=O)c2cc3ccccc3oc2=O)c(OC)c1 | 1 | -2

Additional structures follow.
smiles | NPYLR7 ag | NPYLR7 ag max-min
CN(Cc1cccc(N2CCN(S(=O)(=O)c3ccc4ccccc4c3)CC2)c1F)S(C)(=O)=O | 2 | 8
CCCCOc1ccc(C(=O)Nc2c(-c3cccc(OC)c3)nc3ccccn23)cc1 | -15 | -9
COc1cc(-c2nnc(-c3cccnc3)o2)cc(OC)c1OC | -1 | 3
O=C(Nc1onc2c1CCC2)c1ccc2ncsc2c1 | 10 | 4
CC(C)C(=O)N(Cc1nccn1Cc1ccc(C(F)(F)F)cc1)CC1CC1 | 5 | 16
CCOC(=O)c1ccc(OC2CC3CCC(C2)N3C(=O)c2ccc(CSc3ccc([N+](=O)[O-])cn3)cc2)cc1 (stereo not drawn) | 16 | 6
Cn1cc(C(=O)Nc2ccc(F)c(S(=O)(=O)N3CCOCC3)c2)cn1 | -1 | 22
CCN(CC)C(=O)Oc1ccc2c(ccn2Cc2cc(Br)cc(Br)c2)c1-c1ccc(OC)c(OC)c1 | 11 | 1
NC(=O)C1CCCCC1NS(=O)(=O)c1ccc(F)c(F)c1F (stereo not drawn) | 3 | 1
CC1(C)C2(C(=O)N3CCC(Cc4ccc(-n5cccc5)cc4)CC3)CC[C@@]1(C)C(=O)O2 | 22 | 9

Remaining list, next part:
Each structure is followed by: NPYLR7 ag, NPYLR7 ag max-min
Fc1ccc(-n2cc(CNCCN3CCOCC3)c(-c3ccccc3Cl)n2)cc1
  5, 2
N#Cc1cc(C(=O)c2ccccc2O)cn(C2CC2)c1=O
  12, -16
CC(C)Oc1ccc(C(=O)N2CCN(c3ncnc4c3nnn4Cc3ccccc3)CC2)cc1
  -8, -17
COc1ccc(CCNc2cc(-n3ccnc3)ncn2)cc1
  0, -8
N#Cc1ccc(OCCSC2=NCCS2)cc1
  3, 4
CN1C[C@@H](NC(=O)C2CCC2)C[C@H]1C(=O)NCCc1c[nH]c2ccccc12
  -4, -9
CCN(CC)S(=O)(=O)N(Cc1cccc(C)c1)Cc1ccccn1
  -8, -6
COc1ccc(C(=O)N2CCN(C(C(=O)N3CCOCC3)C3CCCC3)CC2)cc1OC (stereo not drawn)
  -4, -4
COc1ccc(-c2cc(C(=O)N3CCC(Cc4ccccc4)CC3)n(-c3ccc(Cl)c(Cl)c3)n2)c(OC)c1
  -2, 5
O=C(C1CNCCN1C(=O)c1cc2c(s1)CCCC2)N1CCOCC1 (stereo not drawn)
  9, 7

Later entries
Each structure is followed by: NPYLR7 ag, NPYLR7 ag max-min
C=CCn1c(SCC(=O)Nc2ccc(C(=O)OCC)cc2)nc2sc3c(c2c1=O)CCC3
  -8, -15
CCOc1ccc(-c2onc(C)c2-c2ccc(OC)c(OC)c2)c(O)c1
  3, 0
CC(C)CN(C(=O)CSc1nncs1)c1c(N)n(CC(C)C)c(=O)[nH]c1=O
  14, 14
O=C(c1cc(-c2ccccc2F)n2nc(-c3ccccc3)cc2n1)N1CCN(Cc2ccccc2)CC1
  3, 11
CCOC(=O)c1nn(-c2ccc(C(F)(F)F)cc2)c(=O)c2c(NC(=O)CC)scc12
  10, 9
CC(C)c1ccc(NC(=O)NCc2ccc(S(=O)(=O)N(C)C)cc2)cc1
  2, 1
Cc1cc(NC(=O)Cn2nc(C)c(S(=O)(=O)N3CCOCC3)c2C)no1
  -1, -2
O=C1CC(c2cc(F)ccc2-n2cccn2)c2cc3cn[nH]c3cc2N1 (stereo not drawn)
  -3, -7
O=C(NNS(=O)(=O)c1cccc(C(F)(F)F)c1)c1ccco1
  -8, 14
Cc1ccc(C(=O)N(CC(=O)N(Cc2ccc3c(c2)OCO3)Cc2cccs2)CC2CCCO2)cc1[N+](=O)[O-] (stereo not drawn)
  -9, -4

The list continues:
Each structure is followed by: NPYLR7 ag, NPYLR7 ag max-min
FC(F)(F)c1nnc2n1N=C(c1cccc(Cl)c1)CS2
  -3, -7
CN(C)C(=O)CN(C)C(=O)CN1C(=O)NC2(CCCCCC2)C1=O
  2, 2
Cc1cc(C)cc(-c2nn(CN(CCC#N)CCC#N)c(=S)o2)c1
  5, 3
CNC(=O)[C@@H]1[C@@H](OC)C(=O)N(C)C12CCN(C(=O)c1ccc(C(C)(C)C)cc1)CC2
  7, 16
O=C(Nc1ccc2c(c1)OC1(CCCC1)O2)N1CCN(Cc2cccnc2)CC1
  7, 5
COc1cn(CC(=O)NCc2ccccc2)c(CN2CCCCCC2)cc1=O
  2, 1
COc1ccc(-c2nc3oc4ccccc4c(=O)c3c(=O)n2-c2ccc(C)cc2)cc1
  6, 3
OC[C@H]1O[C@@H](n2cnc3c(Nc4ccccc4)ncnc32)C(O)[C@H]1O (stereo partly drawn)
  3, -27
CCOC(=O)c1cnc(-c2ccc(OC)c(OC)c2)nc1NCCc1cccc(Cl)c1
  1, -7
CC(C)(C)C(=O)N1CCCC(C(=O)N2CCCC2c2ccc(O)cc2)C1 (stereo not drawn)
  13&2, 11&2

Continuation.
Each structure is followed by: NPYLR7 ag, NPYLR7 ag max-min
O=C(NCc1cc(Br)ccc1F)NCC1CCN(CC(F)(F)F)C1 (stereo not drawn)
  8, 4
O=C(NNC(=O)c1cccn(Cc2cccc(Cl)c2)c1=O)Nc1cccs1
  6, 1
O=C1NC(=O)C2C1C(c1cccs1)NN2Cc1ccccc1 (stereo not drawn)
  -12, -18
CC(C)Nc1nnc(SC(C)C(=O)NC(=O)NC2CC2)s1 (stereo not drawn)
  -1, -2
O=C(Cc1cc(-c2cc3ccccc3o2)on1)N1CCCCC1
  -1, 3
N#Cc1c(C(F)(F)F)cc(=O)[nH]c1SCC(=O)O
  7, 19
CCc1nc(CN(C)Cc2snnc2C)c(C)[nH]1
  2, -1
Cc1ccc(CC2(NC(=O)Cn3ccc(=O)c4ccccc43)CC2)cc1
  -8, -11
CC(NC(=O)c1cnn(-c2ccc(Cl)cc2)c1C(F)(F)F)c1ncn[nH]1 (stereo not drawn)
  -5, -4
c1ccc(-c2nc3c(c(N4CCN(Cc5cccn5-c5ccccn5)CC4)n2)CCC3)cc1
  2&2, -4&1

Further records follow.
Each structure is followed by: NPYLR7 ag, NPYLR7 ag max-min
CCN(CC)c1ccc(CN(C(=O)c2ccccc2F)C2CC2)c(OS(=O)(=O)c2ccc(NC(C)=O)cc2)c1
  0, 0
O=C(Nc1ccc(N2CCC(Cc3ccccc3)CC2)c(C(=O)N2CCCC2)c1)c1ccc(Cl)c(Cl)c1
  -5, 3
Fc1ccc(N=c2scc(-c3ccc(OC(F)F)cc3)n2C2CC2)cc1
  5, 2
Cc1cc(C)n(-c2nc3c(c(=O)n2CC(=O)N2CCCC2)CCCC3)n1
  -7, -12
CC(C)Oc1ccc(C2N3CC4(C)CN2CC(C)(C3)C4O)cc1 (stereo not drawn)
  6, 4
COc1cccc(C(=O)NC(C(=O)N2CCCCC2)C2CCN(C(=S)Nc3ccc(F)cc3)CC2)c1 (stereo not drawn)
  9, 13
